BJeLR lethal – MLPCN primary cell-based screen for lethality selective to Ras in HRASV12 cells. inhibition, % (test concentration not listed). 300,000 tested, 0.17% active. BJeLR (HRASV12) viability, CellTiter-Glo ATP luminescence, 48 h; reference of the scale not given here. AID 1554, 2009;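 active means replicate mean above 50%; inconclusive means above 50% but judged a plate artefact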;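 further: 50 nL library stock added to about 25 µL; numbers are from one replicate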
Mtb hypoxia inh – PubChem AID 1159583. M. tuberculosis hypoxia-regulated fluorescent reporter, fluorescence. fluorescence inhibition, % (test concentration not listed). 300,000 tested, 0.1% active;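 active means 35 to 45% if threefold the growth effect, above 45% if 1.5-fold the growth effect; inactive means the rest, general growth blockers included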;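 further: wells of about 50 µL received 100 nL stock; 0% = vehicle wells and 100% = reference inhibitor wells; whole bacteria with a GFP reporter of the hypoxia response; strong numbers were not always called active; many hits fall short of the cut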
Autofluor counter – compound fluorescence in toxin protease inhibitor counterscreen | 360,000 tested, 3.1% active | compound autofluorescence counterscreen, microsphere flow cytometry; stronger effect = higher value | fluorescence intensity (concentration not given with the values);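 active means at least 3 SD above the mean of all compounds, about 16000 in these data; inconclusive means too few beads counted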;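 further: 100 nL of 1 mM stock went into each well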
PrP UTR inh – inhibition of PrP 5' UTR reporter expression. cell-based PrP 5' UTR mRNA reporter, plate reader. inhibition, % (no concentration beside the values). 340,000 tested, 0.35% active. AID 488862, 2010;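 active means every replicate at 50% or more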;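 further: 0 = median of the neutral control wells; tested in H4 reporter cells; numbers are from one replicate; inactives centre near -14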
RN4220 kill – growth inhibition of S. aureus RN4220, primary screen, OD600. 16 h. 330,000 tested, 0.33% active. inhibition, % (test concentration not listed);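 active means z-score of -3 or lower and OD600 up to 0.18 on both plates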;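 further: plate controls were untreated cells for no effect and reference antibiotic for full effect; stock transfer was 100 nL into about 80 µL; one replicate is shown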
Sa ugtP lethal – growth inhibition of ugtP-null S. aureus, primary screen, RN4220 ugtP deletion, OD600; 16 h; some inactives read as strong as hits; growth inhibition, % (no concentration beside the values); 330,000 tested, 0.54% active; AID 1259309, 2017;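 active means z-score under -3 and OD600 up to 0.15 on both plates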;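 further: plate controls were untreated wells for no effect and antibiotic for full effect; wells of about 80 µL received 100 nL stock; the first replicate is given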
Mtb hypoxia inh growth – second read-out of Mtb hypoxia inh, no call of its own (marks repeat the call); growth inhibition, %; measured here: M. tuberculosis growth (absorbance);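 0% = vehicle and 100% = reference antibiotic; read after six days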
An asterisk follows results filed as active.

CCCCCN1CC=CC(c2ccc(OC)cc2)N(Cc2ccc(F)cc2)C(=O)C1 (stereo not given) was read as Mtb hypoxia inh 3, RN4220 kill 5.3, Sa ugtP lethal 0 and Mtb hypoxia inh growth 10.
Screening O=C(CSc1nnc(-c2ccc(Cl)cc2)o1)N1CCOCC1 returned BJeLR lethal -2, Mtb hypoxia inh 6, Autofluor counter 3148, PrP UTR inh -49, RN4220 kill 6.6, Sa ugtP lethal 2 and Mtb hypoxia inh growth 16.
Screening CC(C)(C)OC(=O)NCCCCCc1nnc(SCc2cccc(F)c2)o1 returned BJeLR lethal 1, Mtb hypoxia inh 2, PrP UTR inh -28, RN4220 kill 5.0, Sa ugtP lethal 5 and Mtb hypoxia inh growth -13.
`NS(=O)(=O)c1ccc(CCNC(=O)COC(=O)Cc2ccc([N+](=O)[O-])cc2)cc1` gave Mtb hypoxia inh -3, PrP UTR inh -12, RN4220 kill 3.4, Sa ugtP lethal 9 and Mtb hypoxia inh growth 3.
`CCOC(=O)c1cc(CC)sc1NC(=O)COC(=O)c1cnccn1` gave BJeLR lethal -14, Mtb hypoxia inh 14, Autofluor counter inconclusive, PrP UTR inh -19, RN4220 kill 3.4, Sa ugtP lethal 5 and Mtb hypoxia inh growth 4.
Screening CN(C(=O)COC(=O)CN1C(=O)c2cccc([N+](=O)[O-])c2C1=O)c1ccccc1 returned Mtb hypoxia inh 10, PrP UTR inh 11, RN4220 kill 3.1, Sa ugtP lethal 7 and Mtb hypoxia inh growth -3.
Screening COc1ccc(C=NNc2nn3cnnc3c3ccccc23)cc1 returned Mtb hypoxia inh 4, RN4220 kill 5.1, Sa ugtP lethal 12 and Mtb hypoxia inh growth 2.
For Nc1nc(SCC(=O)C23CC4CC(CC(C4)C2)C3)n[nH]1 the results were BJeLR lethal 4, Mtb hypoxia inh 4, Autofluor counter 2882, PrP UTR inh -10, RN4220 kill 6.4, Sa ugtP lethal 4 and Mtb hypoxia inh growth 8.
Screening CC(CCn1cccn1)NC(=O)CCc1nnc(CCc2ccccc2)o1 (stereo not given) returned BJeLR lethal 4, Mtb hypoxia inh 11, Autofluor counter 2597, PrP UTR inh -23, RN4220 kill 1.1, Sa ugtP lethal 5 and Mtb hypoxia inh growth 5.
For COC(=O)c1sc(S(=O)(=O)NCCCN(C)C)c(C(=O)OC)c1C the results were BJeLR lethal -28, Mtb hypoxia inh -2, Autofluor counter 4188, PrP UTR inh -6, RN4220 kill -0.6, Sa ugtP lethal 2 and Mtb hypoxia inh growth 10.
`OCc1cc(Br)ccc1OCc1nc2ccccc2s1` gave BJeLR lethal 1, Mtb hypoxia inh -8, Autofluor counter 3665, PrP UTR inh -63, RN4220 kill 2.8, Sa ugtP lethal -4 and Mtb hypoxia inh growth 9.
For Cc1ccc2c(c1)/C(=C/c1ccccc1C)C(=O)N2 the results were BJeLR lethal 1, Mtb hypoxia inh 8, Autofluor counter 3049, PrP UTR inh -10, RN4220 kill 0.8, Sa ugtP lethal -14 and Mtb hypoxia inh growth 7.
Screening CC(C)c1ccc(NC(=O)C(c2ccccc2)N(Cc2ccco2)C(=O)CC2NC(=O)NC2=O)cc1 (stereo not given) returned BJeLR lethal 4, Mtb hypoxia inh 5, Autofluor counter 3175, PrP UTR inh -12, RN4220 kill 0.7, Sa ugtP lethal 11 and Mtb hypoxia inh growth 2.
Screening CN(C)S(=O)(=O)c1cccc(NC(=O)CN2C(=O)NC(Cc3c[nH]c4ccccc34)C2=O)c1 (stereo not given) returned BJeLR lethal 5, Mtb hypoxia inh 0, Autofluor counter 4674, PrP UTR inh -6, RN4220 kill 1.6, Sa ugtP lethal 5 and Mtb hypoxia inh growth 0.
Screening Cc1ccccc1OCCC(=O)N1CCN(S(=O)(=O)c2ccc(F)cc2)CC1 returned BJeLR lethal 15, Mtb hypoxia inh -7, Autofluor counter 6682, PrP UTR inh -9, RN4220 kill 0.6, Sa ugtP lethal 3 and Mtb hypoxia inh growth -4.
For CCn1c(=O)c2cc(C(=O)N(C)c3cc(C)ccc3OC)sc2c2ccccc21 the results were BJeLR lethal 14, Mtb hypoxia inh 12, Autofluor counter 3544, RN4220 kill -4.3, Sa ugtP lethal 6 and Mtb hypoxia inh growth 14.
Cc1oc(S(=O)(=O)N(C)C)cc1C(=O)Nc1ccc(F)cc1 was read as BJeLR lethal -1, Mtb hypoxia inh 0, PrP UTR inh -10, RN4220 kill 3.7, Sa ugtP lethal 4 and Mtb hypoxia inh growth 10.
O=C(C1CC1)N1N=C(C2CCCCC2)CC1(O)C(F)(F)F (stereo not given) was read as BJeLR lethal -28, Mtb hypoxia inh 6, Autofluor counter 3492, PrP UTR inh -10, RN4220 kill 19, Sa ugtP lethal -1 and Mtb hypoxia inh growth -2.
Screening CCn1c2ccccc2c2cc(NC(=O)c3ccco3)ccc21 returned BJeLR lethal 0, Mtb hypoxia inh 8, Autofluor counter 13677, PrP UTR inh -39, RN4220 kill 10, Sa ugtP lethal -18 and Mtb hypoxia inh growth 4.
`Cc1cc(NC(=O)CSc2nnc(-c3cccs3)n2N)no1` gave BJeLR lethal 6, Autofluor counter 6499, PrP UTR inh -17, RN4220 kill 4.0 and Sa ugtP lethal -10.
For NC(=S)NN=C1CC(n2nnnc2-c2ccccc2)C2COC1O2 (stereo not given) the results were Mtb hypoxia inh -2, RN4220 kill 2.5, Sa ugtP lethal 2 and Mtb hypoxia inh growth -3.
For CNC(=O)c1ccsc1NC(=O)c1ccc(S(=O)(=O)N2CCc3ccccc32)cc1 the results were BJeLR lethal 6, Autofluor counter 5763 and PrP UTR inh -13.
`COc1ccc(CN2C(=O)C(=O)N(CC(N)=O)C2=O)cc1` gave BJeLR lethal -2, Mtb hypoxia inh 3, Autofluor counter 4262, PrP UTR inh -27, RN4220 kill 4.0, Sa ugtP lethal -3 and Mtb hypoxia inh growth 7.
Cc1cc(-c2ccccc2)nc(N/N=C/c2cccnc2)n1 was read as BJeLR lethal 2, Autofluor counter 4654 and PrP UTR inh -13.
For CCN(C(=O)CSc1nnc(-c2c[nH]c3ccccc23)o1)C1CCS(=O)(=O)C1 (stereo not given) the results were BJeLR lethal -3, Mtb hypoxia inh 9, Autofluor counter 5396, PrP UTR inh -4, RN4220 kill 2.4, Sa ugtP lethal 3 and Mtb hypoxia inh growth 10.
Screening COc1cccc(CN(C(=O)c2ccccc2Br)C2CCS(=O)(=O)C2)c1 (stereo not given) returned BJeLR lethal 1, Mtb hypoxia inh 2, Autofluor counter 6031, PrP UTR inh -11, RN4220 kill -1.3, Sa ugtP lethal 1 and Mtb hypoxia inh growth 4.
O=C1C(C2=NC(c3ccccn3)C3C(=O)N(c4ccc(OC(F)(F)F)cc4)C(=O)C23)=C(O)c2ccccc21 (stereo not given) was read as BJeLR lethal 16, Mtb hypoxia inh 19, Autofluor counter 4090, PrP UTR inh -16, RN4220 kill 4.1, Sa ugtP lethal 23 and Mtb hypoxia inh growth -8.
Screening CC(c1nnc(SCC(=O)N2CC(=O)Nc3ccccc32)n1Cc1ccccc1)N(C)C (stereo not given) returned BJeLR lethal 0, Autofluor counter 2674, PrP UTR inh 0, RN4220 kill -2.1 and Sa ugtP lethal -5.
Screening COc1cccc(N2CC(C(=O)Nc3nnc(SCC(=O)c4ccccc4)s3)CC2=O)c1 (stereo not given) returned BJeLR lethal 6, Mtb hypoxia inh 0, Autofluor counter 2504, PrP UTR inh -20, RN4220 kill -11, Sa ugtP lethal -13 and Mtb hypoxia inh growth -1.
Screening O=C(Cn1cnc2ccccc21)Nc1cc(C(F)(F)F)ccc1N1CCOCC1 returned BJeLR lethal 9, Mtb hypoxia inh 8, Autofluor counter 9115, PrP UTR inh -14, RN4220 kill 5.9, Sa ugtP lethal -10 and Mtb hypoxia inh growth 11.
`Cn1cccc1C=NN1CCN(Cc2ccc(Cl)cc2)CC1` gave Mtb hypoxia inh 4, RN4220 kill -1.2, Sa ugtP lethal 1 and Mtb hypoxia inh growth 4.
Cc1cc(C(F)F)nn1CC(=O)NCc1ccccc1F was read as BJeLR lethal -2, Mtb hypoxia inh 5, Autofluor counter 3312, PrP UTR inh 5, RN4220 kill 7.4, Sa ugtP lethal 8 and Mtb hypoxia inh growth -1.
For O=C1CC(c2ccccc2)CC(=O)C1=CN1CCCC1 (stereo not given) the results were BJeLR lethal -8, Mtb hypoxia inh 2, Autofluor counter 5656, PrP UTR inh -4, RN4220 kill 2.1, Sa ugtP lethal 1 and Mtb hypoxia inh growth 6.
Screening O=Cc1c(NCCN2CCCC2)c2ccccc2[nH]c1=O returned BJeLR lethal 4, Mtb hypoxia inh 4, Autofluor counter 4494, PrP UTR inh -51, RN4220 kill 2.7, Sa ugtP lethal 17 and Mtb hypoxia inh growth 7.
CNC(=O)/C(C#N)=C\c1ccc(CNS(=O)(=O)c2ccc(Cl)cc2)o1 was read as BJeLR lethal -4, Mtb hypoxia inh 3, Autofluor counter 3250, PrP UTR inh -12, RN4220 kill 5.3, Sa ugtP lethal 5 and Mtb hypoxia inh growth 9.
CC(=O)C(C(C)=O)C(NC(=O)c1cccnc1)(C(F)(F)F)C(F)(F)F was read as BJeLR lethal -3, Autofluor counter 2290, PrP UTR inh -18, RN4220 kill 0.1 and Sa ugtP lethal 1.
Screening Cc1ccc(C(=O)COC(=O)c2cc(Cl)nc3ccccc23)cc1 returned BJeLR lethal 8, Mtb hypoxia inh 9, Autofluor counter inconclusive, PrP UTR inh -11, RN4220 kill 4.7, Sa ugtP lethal 5 and Mtb hypoxia inh growth 8.
For Cc1ccc(CSCC(=O)N/N=C/c2cccc(OC3CSC3)c2)cc1 the results were BJeLR lethal 3, Autofluor counter 2614 and PrP UTR inh -5.
Screening O=C(COC(=O)c1cccc(S(=O)(=O)N2CCCC2)c1)Nc1ccccc1C(F)(F)F returned Mtb hypoxia inh 7, PrP UTR inh -24, RN4220 kill 4.9, Sa ugtP lethal 6 and Mtb hypoxia inh growth 0.
For O=C(CN1CCCCC1)Nc1cc(S(=O)(=O)N2CCOCC2)ccc1N1CCCC1 the results were Mtb hypoxia inh 6, Autofluor counter 4191, PrP UTR inh -17, RN4220 kill 2.0, Sa ugtP lethal 4 and Mtb hypoxia inh growth -8.
CN1CCN(C(=O)C2CCCN(S(=O)(=O)c3ccc(Br)cc3)C2)CC1 (stereo not given) was read as BJeLR lethal -4, Mtb hypoxia inh 3, Autofluor counter 5449, PrP UTR inh -2, RN4220 kill -2.3, Sa ugtP lethal -2 and Mtb hypoxia inh growth 5.

Compounds above that have a furan ring, fused or not (four):
Screening CC(C)c1ccc(NC(=O)C(c2ccccc2)N(Cc2ccco2)C(=O)CC2NC(=O)NC2=O)cc1 (stereo not given) returned BJeLR lethal 4, Mtb hypoxia inh 5, Autofluor counter 3175, PrP UTR inh -12, RN4220 kill 0.7, Sa ugtP lethal 11 and Mtb hypoxia inh growth 2.
Cc1oc(S(=O)(=O)N(C)C)cc1C(=O)Nc1ccc(F)cc1 was read as BJeLR lethal -1, Mtb hypoxia inh 0, PrP UTR inh -10, RN4220 kill 3.7, Sa ugtP lethal 4 and Mtb hypoxia inh growth 10.
Screening CCn1c2ccccc2c2cc(NC(=O)c3ccco3)ccc21 returned BJeLR lethal 0, Mtb hypoxia inh 8, Autofluor counter 13677, PrP UTR inh -39, RN4220 kill 10, Sa ugtP lethal -18 and Mtb hypoxia inh growth 4.
CNC(=O)/C(C#N)=C\c1ccc(CNS(=O)(=O)c2ccc(Cl)cc2)o1 was read as BJeLR lethal -4, Mtb hypoxia inh 3, Autofluor counter 3250, PrP UTR inh -12, RN4220 kill 5.3, Sa ugtP lethal 5 and Mtb hypoxia inh growth 9.

Source: PubChem (several laboratories)
